Screening data as filed in PubChem.
gsp ag: agonists of gsp mutant (McCune-Albright syndrome). gsp mutant cells, cAMP HTRF, 30 min; control for the full effect not named in the record. Potency, µM (titrated, usually from 76.9 µM), without a hit: top-dose activation (cAMP increase), most hits filed as activators. 0.13% of 340,000 active; active = well fitted activation curve with a large enough effect; inconclusive = small, poorly fitted or top-dose-only effect, or another doubt; inactive = no such curve, though single readings can be large or run the other way; cell line not stated here;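 further: phosphodiesterase inhibitor Ro 20-1724 added with compounds to block cAMP breakdown; potency means the concentration at half of the fitted maximal effect; nearly all actives have a fitted effect of over 60% in size; about a fifth of the inactives were tested at one dose only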
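Cells in DMEM/10% FBS with G418 were pretreated with compounds in DMSO plus […] (300 uM stock) for 30 min at 37C. cAMP was measured by HTRF (cAMP-d2 plus anti-cAMP antibody-K) after 30 min at room temperature.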
Menin MLL FP FL: menin-MLL binding inhibition, fluorescein peptide; Fluorescence polarization, fluorescein-MLL peptide displacement from menin; FP activity change, % at 61.4 µM; 290,000 tested, under 10 active; inconclusive = falling polarisation curve, or a change in total fluorescence; inactive = total fluorescence flat and polarisation flat or rising; no compound was filed as active; the % refers to the polarisation; negative = inhibition;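 further: % of control where 0% means no effect; inhibitors lower the polarisation; unlabelled MLL peptide was the positive control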
TRPML1 blocker: inhibitors of human TRPML1 channel; TRPML1-inducible cells, Ca2+ dye fluorescence, FDSS; stronger effect = lower value; inhibition of EC80 agonist-evoked calcium signal; activity change, negative = inhibition, % (concentration not given with the values); 0.02% of 390,000 active; in the data active means activity change below about -50%; inconclusive means about -30% to -50%; inactive means above about -30%;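 further: stimulus is agonist 54-4 at its EC80 concentration; on the % scale 0 is the no-effect control and ±100 the full control effect; compound concentration not given in the record; the text of the record puts the active cut at -80%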
Target sequence (Q9GZU1 whole entry, looked up): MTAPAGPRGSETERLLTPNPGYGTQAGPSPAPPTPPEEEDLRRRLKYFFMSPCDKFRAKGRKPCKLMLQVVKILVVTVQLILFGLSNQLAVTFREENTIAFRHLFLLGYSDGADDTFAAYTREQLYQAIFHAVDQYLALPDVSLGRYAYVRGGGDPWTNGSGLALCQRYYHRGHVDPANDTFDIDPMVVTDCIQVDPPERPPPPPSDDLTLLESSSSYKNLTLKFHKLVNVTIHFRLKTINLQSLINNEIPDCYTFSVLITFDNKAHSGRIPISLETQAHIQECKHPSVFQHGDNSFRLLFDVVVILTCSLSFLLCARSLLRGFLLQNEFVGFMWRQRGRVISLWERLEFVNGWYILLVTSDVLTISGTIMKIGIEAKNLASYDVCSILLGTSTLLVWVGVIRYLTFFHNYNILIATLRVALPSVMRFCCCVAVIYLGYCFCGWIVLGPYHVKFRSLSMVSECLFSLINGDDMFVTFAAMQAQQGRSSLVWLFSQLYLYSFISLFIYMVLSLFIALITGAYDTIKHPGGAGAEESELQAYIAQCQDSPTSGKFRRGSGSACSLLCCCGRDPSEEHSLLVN
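TRPML1-DL cells, Tet-induced overnight (~16 h, 37 °C) at 1,500 cells/well, were loaded with Ca8 no-wash dye plus quencher for 45-90 min at room temperature. Compounds were pinned during FDSS kinetic reading; agonist 54-4 at EC80 (4 uM final) then added.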
ClpP mod: qHTS Assay for Activators of ClpP; ATP-dependent Clp protease proteolytic subunit (Bacillus subtilis (strain 168)), P80244; purified B. subtilis ClpP, FRET peptide cleavage, 20 min; Potency, µM (doses to about 57.5 µM), for the others: at the top dose activity change, negative = active; 1.9% of 340,000 active; active = well fitted falling curve with a large enough effect; inconclusive = small, poorly fitted or top-dose-only effect; inactive = no such curve, though single readings can be large or run the other way; further: potency means the concentration at half of the fitted maximal effect; the source files actives as falling curves though it sought activators and does not explain the sign; nearly all actives have a fitted effect of over 65% in size; many hits overshoot -100%
Target sequence (P80244 whole entry, looked up): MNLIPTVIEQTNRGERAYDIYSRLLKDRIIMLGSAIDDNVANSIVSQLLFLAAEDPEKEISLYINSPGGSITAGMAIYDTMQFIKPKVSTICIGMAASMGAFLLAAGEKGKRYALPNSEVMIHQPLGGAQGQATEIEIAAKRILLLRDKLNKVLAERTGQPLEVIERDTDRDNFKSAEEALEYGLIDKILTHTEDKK
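FRET quenching reversal measured ClpP activation: 10 microg/mL B. subtilis ClpP at pH 8 with the FRET-FV decapeptide, read at 430 nm after 320 nm excitation. The 20-min minus 0-min signal was scaled between DMSO/no-enzyme wells and ADEP (5.8 microM final).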
gsp antagonist: gsp mutant antagonism. gsp-mutant cells, cAMP HTRF, 30 min; control for the full effect not named in the record. Potency, µM (titrated, usually from 76.9 µM), without a hit: top-dose activity change, negative = inhibition, usual class: inhibitors. 0.4% of 340,000 active. AID 624288; active = falling curve of any shape with a large fitted effect; inconclusive = falling curve, mostly with a smaller effect; inactive = flat or rising curve; cell line not stated here;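 further: intracellular cAMP measured with PDE inhibitor Ro 20-1724 present during compound exposure; potency means the concentration at half of the fitted maximal effect; on the % scale 0 is the no-effect control and ±100 the full control effect; nearly all actives have a fitted effect of over 65% in size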
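HTRF cAMP read-out (cAMP-d2 plus anti-cAMP antibody-K in lysis buffer, 30 min RT). Before lysis, cells are exposed to compounds with […] for 30 min at 37C in DPBS containing Ca/Mg, BSA and Tween 20.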
TRPML1 agonist: activates the human TRPML1 channel; 0.12% of 410,000 active; activation, % (no concentration beside the values); TRPML1-expressing cells, Ca2+ dye fluorescence, FDSS; host cell line not named in the record; reference of the full effect not given here; AID 624414; in the data active = activation above about 50%; inconclusive = about 30% to 50%; inactive = below about 30%; further: 0% is about no effect; the text of the record puts the active cut at 80%
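Agonist activity was taken from a 110 s kinetic Ca2+ dye read on the FDSS after pinning compounds onto TRPML1-DL cells. The cells were seeded at 1,500/well with Tet inducer, incubated about 16 h, then dye-loaded at room temperature.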
Starred values were filed as active, the others as inactive; ? = inconclusive; · = no result given; [ ] = dose if it differs, or a comment. Rows are unselected (roughly 2.1% active in at least one column).

SMILES | gsp ag | Menin MLL FP FL | TRPML1 blocker | ClpP mod | gsp antagonist | TRPML1 agonist
CCN1C(=O)S/C(=C\c2ccc(N3CCOCC3)cc2C)C1=O | 22% | ? | -2 | 0.7% | ? | 2.8
COc1ccc(Cl)cc1NC(=O)CN(C)CC(=O)NC(C)c1ccccc1 (configuration not stated) | 4% | 4.2 | 18 | -1.1% | -5% | 4.3
O=C(c1cccs1)N1CCN(c2nc3c(F)cc(F)cc3s2)CC1 | -6%[15.4 µM] | · | 14 | -5.3% | -20% | 1.5
Cc1ccc(/C=C(\C#N)c2nc3ccccc3c(=O)[nH]2)cc1 | · | · | 12 | ? | · | 0.5
O=c1[nH]c(/C=C/c2ccccc2Cl)c([N+](=O)[O-])c(=O)[nH]1 | 18%[15.4 µM] | -2.1 | 1 | 2.2% | 1% | -0.1
Cc1ccc(CCNC(=O)CN2C(=O)COc3ccc(S(=O)(=O)N4CCCCCC4)cc32)cc1 | · | · | -7 | 1.6% | · | 1.0
O=C(CCN1C(=O)/C(=C/C=C/c2ccccc2)SC1=S)Nc1ccccn1 | -7%[15.4 µM] | 18 | -9 | -7.4% | -2% | 1.1
CC(=O)c1c(C)[nH]c(C(=O)OC(C)C(=O)NC2CCCCC2)c1C (configuration not stated) | 1% | · | -20 | 2.1% | · | -0.2
CCN(CC)S(=O)(=O)c1ccc(NC(=O)c2cnc(C)cn2)cc1 | -19% | -2.0 | 5 | -8.6% | -2% | 0.0
Cc1cc(C(=O)N2CCCC(N3CCN(c4cccc(C(F)(F)F)c4)CC3)C2)c(C)o1 (configuration not stated) | -10% | 1.5 | 0 | 0.6% | -6% | 0.3
O=C(CCn1c(=S)oc2ccccc21)Nc1cc([N+](=O)[O-])ccc1F | -31%[inhibitor] | -0.1 | -1 | 1.4% | 6% | 1.6
CCc1cnc2c(c1SCC(=O)NCc1ccccc1)c(=O)n(C)c(=O)n2C | · | · | 3 | 0.1% | · | -0.3
O=c1c(C(c2ccccc2)c2c(O)nc3n(c2=O)CCS3)c(O)nc2n1CCS2 | ? | 4.7 | 4 | -2.0% | 24% | 0.6
N/C(Cc1cccs1)=N\OC(=O)COc1ccccc1Cl | 1% | 1.3 | 7 | -0.5% | 6% | 0.3
COc1ccc(-n2nc(C(=O)NCC(=O)N3CCN(c4ccccc4F)CC3)c3ccccc3c2=O)cc1OC | -7%[15.4 µM] | · | -5 | · | 2% | -0.2
O=C(NCCc1ccc(Cl)cc1)c1cccnc1 | -1% | -1.3 | 5 | -1.0% | -1% | -0.7
Cc1cnc(C(=O)OCC(=O)Nc2ccc(C)c(S(=O)(=O)N3CCOCC3)c2)cn1 | 28%[15.4 µM] | · | 0 | 1.5% | 2% | 0.9
Cc1cc(C)cc(N(CC(=O)N2CCC(C)CC2)S(C)(=O)=O)c1 | -46%[inhibitor] | 1.1 | 11 | 0.3% | 1% | -0.8
CCCc1nnc(NC(=O)Cn2cnc3ccccc3c2=O)s1 | 9% | 1.8 | -9 | -1.3% | 8% | -0.3
CCN(CC)C(=N)N1c2ccccc2CCC1C (configuration not stated) | ? | -0.8 | -7 | 0.0% | 12% | -0.3
O=C(NCc1ccccc1)N1CCn2c(nc3ccccc32)C1 | -6% | 2.4 | -2 | 32µM* | 7% | -0.3
Cc1nn(C2CCCCC2)c(N)c1-c1ccccc1 | -14% | -2.1 | 14 | 1.4% | 7% | -0.5
Cc1ccccc1Nc1c(-c2ccc(N3CCOCC3)cc2)nc2ccccn12 | · | · | 15 | 4.1% | · | -0.2
O=C(NCCCl)Nc1ccc(Cl)c([N+](=O)[O-])c1 | -8%[15.4 µM] | -3.9 | -3 | · | -6% | -0.1
O=[N+]([O-])c1cccc(CN2CCN(c3cccc4[nH]ccc34)CC2)c1 | -17% | 2.9 | · | -3.9% | 3% | ·
Nc1ncnc(Sc2ncccn2)c1[N+](=O)[O-] | -10% | -5.3 | 20 | 1.6% | 2% | 0.8
COC(=O)c1ccc(Cn2cnc3c(Cl)ncnc32)cc1 | -18% | · | -14 | · | 5% | 1.3
COc1ccccc1/C=N/OC(=O)c1ccc(C)cc1 | -3%[15.4 µM] | -1.2 | 54 | -5.9% | -2% | 1.8
COc1cc(/C=N/NC(=O)CCn2nnc3ccccc32)ccc1O | ? | 1.7 | 12 | · | 2% | -0.8
O=S(=O)(NOCc1ccc(Cl)cc1)c1ccc(Cl)cc1 | 17% | -2.4 | 16 | -3.7% | 7% | 2.6

3 compounds out of the list, sorted by length of the SMILES, lowest first:
SMILES | gsp ag | Menin MLL FP FL | TRPML1 blocker | ClpP mod | gsp antagonist | TRPML1 agonist
Nc1ncnc(Sc2ncccn2)c1[N+](=O)[O-] | -10% | -5.3 | 20 | 1.6% | 2% | 0.8
O=S(=O)(NOCc1ccc(Cl)cc1)c1ccc(Cl)cc1 | 17% | -2.4 | 16 | -3.7% | 7% | 2.6
Cc1ccccc1Nc1c(-c2ccc(N3CCOCC3)cc2)nc2ccccn12 | · | · | 15 | 4.1% | · | -0.2

The listing picks up; the two compounds before the break are reprinted first.
SMILES | gsp ag | Menin MLL FP FL | TRPML1 blocker | ClpP mod | gsp antagonist | TRPML1 agonist
COc1cc(/C=N/NC(=O)CCn2nnc3ccccc32)ccc1O | ? | 1.7 | 12 | · | 2% | -0.8
O=S(=O)(NOCc1ccc(Cl)cc1)c1ccc(Cl)cc1 | 17% | -2.4 | 16 | -3.7% | 7% | 2.6
Cc1cc(C)c(C(=O)/C=C/c2cccc3ccccc23)c(=O)[nH]1 | 0% | 0.8 | 10 | -11% | 11% | 1.5
COc1ccccc1C(=O)NCCC(=O)NC1=NCCS1 | -37%[inhibitor] | · | -1 | -1.6% | 4% | -0.6
CC1CC(NC(=O)c2cnc3n(c2=O)CCS3)CC(C)(C)C1 (configuration not stated) | ? | -0.8 | -1 | -0.1% | -1% | -0.9
CC(=O)Nc1ccc(S(=O)(=O)N(C)CC(=O)OC2CCCCC2=O)cc1 (configuration not stated) | 5% | · | 0 | 0.8% | -3% | 4.6
CN(CCCNC(=O)c1ccc(N2CCCC2=O)cc1)c1ccccc1 | ? | 1.9 | 10 | -7.3% | -5% | -1.0
CC(=O)NC1(NC(C)=O)CCN(C)C(c2ccccc2)C1C (configuration not stated) | 2% | 0.8 | -2 | -1.2% | 10% | 0.7
CCOCCCNC(=O)N[C@@H](Cc1ccccc1)C(=O)OC | -16% | -1.0 | 11 | -2.2% | 9% | 0.2
CCc1nnc(NC(=O)c2c(O)c3c([nH]c2=O)CCCC3)s1 | 0% | -0.8 | 35 | -3.9% | -4% | -0.9
CCOC(=O)c1ccc(Oc2c(C)oc3cc(OS(C)(=O)=O)ccc3c2=O)cc1 | -30%[inhibitor] | 2.3 | -16 | -8.0% | -27% | 0.9
O=C1CC(Sc2ncn[nH]2)C(=O)N1c1ccccc1 (configuration not stated) | -31%[inhibitor] | 0.1 | -6 | 0.2% | -9% | -0.1
O=C(NCc1ccco1)c1ccc(F)c(S(=O)(=O)N2CCCCC2)c1 | -4%[15.4 µM] | 2.6 | -6 | · | · | -0.1
COc1cc(/C=N/NC(=O)c2cccnc2)ccc1OCC(=O)Nc1c(C)cc(C)cc1C | ? | 7.8 | 3 | · | -1% | -0.3
COc1ccc(C2=NN3C(C2)c2ccccc2OC32C(=O)N(C)c3ccccc32)cc1 (configuration not stated) | 10% | 6.4 | -1 | -27% | -13% | -0.1
Fc1ccccc1-c1n[nH]c(=S)n1CC1CCCO1 (configuration not stated) | 0%[15.4 µM] | -3.7 | 2 | · | · | 0.2
C=CC[C@H](CC(=O)NCCO)C(=O)N[C@@H](COC(=O)[C@H](CC=C)CC(=O)OC(C)(C)C)Cc1c[nH]c2ccccc12 | · | · | 8 | -0.3% | -3% | -0.6
Cc1cccc(NC(=O)CN2C(=O)N/C(=C/c3cc(C)n(C(C)C)c3C)C2=O)c1 | 14% | 2.5 | 2 | -1.6% | -1% | 1.2
Cc1ccc(Cl)cc1NC(=O)CSCc1cnn(-c2ccccc2)c1-n1cccc1 | · | · | -12 | -1.5% | · | 2.3
CCn1c(=O)cc(OCC(=O)N(C)c2cc(Cl)ccc2C)c2ccccc21 | · | · | 4 | -23% | · | -0.6
O=C(Nc1ccccc1C(=O)N1CCOCC1)c1noc2c1CCCC2 | 27% | 2.7 | -10 | -0.3% | 7% | 2.2
Cn1ccc2c(-c3ccc(F)nc3)cc3c(c21)C1CCC3C1 (configuration not stated) | · | · | 28 | 5.2% | · | 0.1
CN(C)CCCN1CC(C(=O)O)CC1=O (configuration not stated) | -46%[inhibitor] | 2.5 | 0 | 0.0% | -1% | 0.6
N/C(=N\OC(=O)CCC1CCCC1)c1ccc([N+](=O)[O-])cc1 | 19%[15.4 µM] | 0.5 | 7 | · | 15% | -0.5
O=C(COc1ccc(C2SCCS2)cc1)NNC(=O)C(Cl)Cl | -5%[15.4 µM] | 0.1 | -5 | · | -12% | 0.2
CCOC(CNC(=O)c1ccc2c(c1)nc(C)n2-c1cccc(F)c1)OCC | -11% | 1.5 | 19 | 0.0% | -4% | -0.6
O=C(c1cnc(N2CCCCC2)c2ccccc12)N1CCN(c2cccc(Cl)c2)CC1 | · | · | -16 | 28µM* | · | 1.6
CCOC(=O)c1c(S(=O)(=O)NCCc2ccc(OC)c(OC)c2)c(C)n(C)c1C | 21% | -13 | 3 | 2.9% | 11% | 0.5
COc1ccc(N(CC(O)CN2CCCCC2)S(=O)(=O)c2ccc(C)cc2)cc1 (configuration not stated) | 3% | 0.1 | 39 | 1.7% | 8% | 1.2
O=C(NCC(c1cccs1)S(=O)(=O)c1cccs1)c1ccc(C(F)(F)F)cc1 (configuration not stated) | · | · | 3 | -1.5% | · | 0.4
CCCN1CCN(C(=O)c2cc(COc3ccc4ncccc4c3)on2)CC1 | -13% | 3.5 | · | -14% | -10% | ·
CCOc1ccc(NC(=O)N(c2ccccc2)c2ccccc2)cc1 | 0%[15.4 µM] | -4.1 | -18 | -2.5% | -24% | -1.5
O=C(N/N=C\c1cccnc1)c1ccc(Cl)cc1Cl | 26% | -1.5 | -4 | -2.9% | 16% | -0.7
COc1ccc(OC)c(C2C(C(=O)c3ccc(C)o3)=C(O)C(=O)N2CCN2CCOCC2)c1 (configuration not stated) | 85% | · | 3 | -3.7% | 16% | -0.9
O=C(O)CC(SCC(=O)NC1CCCc2ccccc21)C(=O)O (configuration not stated) | 16% | 2.8 | · | 0.3% | 6% | ·
COc1ccc(C2C(C#N)=C(C)NC(C)=C2C(=O)OC(C)C)c(OC)c1 (configuration not stated) | ? | -4.7 | -2 | · | -3% | 0.1
